From PubChem BioAssay
RE007 growth inh = less growth of the S. pombe RE007 Vpr strain; AID 651644; 360,000 compounds, 0.21% hits; Potency, µM (highest dose often 92.2 µM), inactives show top-dose activity change, negative = less growth; S. pombe RE007 Vpr strain, BacTiter-Glo ATP luminescence, 24 h; control for the full effect not named in the record; active = well fitted falling curve with a large enough effect; inconclusive = small, poorly fitted or top-dose-only effect; inactive = no such curve, though single readings can be large or run the other way;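 note: nearly all actives have a fitted effect of over 50% in size; the assay follows cell death caused by Vpr and the record does not say whether a fall means rescue or toxicity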
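Fission yeast strain RE007, carrying one chromosomally integrated HIV-1 vpr copy, was seeded at OD 0.01 in PMG+AL medium with 23 nL pinned compound. After 24 h at 30 °C and 99% humidity, viability was read by BacTiter-Glo luminescence.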
StopGo reporter = lowers the luciferase signal of an FMDV 2A StopGo reporter. human cells with a luciferase reporter of 2A StopGo recoding; control for the full effect not named in the record. Potency, µM (highest dose often 57.9 µM), for inactives: at the top dose signal change, negative = less light. 410,000 compounds, 1.2% hits. AID 1159524; active = well fitted falling curve with a large enough effect; inconclusive = small, poorly fitted or top-dose-only effect; inactive = no such curve, though single readings can be large or run the other way; tested in HEK293T cells; note: nearly all actives have a fitted effect of over 45% in size; luciferase light after 4 h
Numbers without * were called inactive; ? = inconclusive; & = joins results of further samples; [ ] = remark or other dose. % is set by controls: 0 for no effect and ±100 for the full control effect; potency is the fitted concentration of half-maximal effect. Only part of the results is shown. The share of hits here may be higher or lower than overall.

1: CC(C)C[C@H]1CN([C@@H](CC(C)C)CN2CCC[C@@H]2CN2C(=O)C(=O)NC[C@@H]2Cc2ccccc2)C(=O)C(=O)N1CCc1ccccc1
2: COc1ccc(Cc2c(-c3ccccc3)nc3ccc(Br)cn23)c(C)c1
3: COc1ccc(S(=O)(=O)N(C)C[C@H]2Oc3ncc(-c4ccncc4)cc3C(=O)N([C@@H](C)CO)C[C@@H]2C)cc1
4: Cc1cc(OC(=O)c2c(C)cc(OC(=O)c3c(C)cc(O)cc3O)cc2O)cc(O)c1C(=O)O
5: CN1C(=O)[C@H]2[C@@H](c3ccc(C(F)(F)F)cc3)N[C@]3(CCCN(Cc4cccn4C)C3=O)[C@H]2C1=O
6: CC(C)C[C@H]1CN([C@@H](Cc2ccc(O)cc2)CN2CCC[C@H]2CN2C(=O)C(=O)NC[C@@H]2Cc2ccccc2)C(=O)C(=O)N1CC1CCCCC1

| screen / no. | 1 | 2 | 3 | 4 | 5 | 6 |
| --- | --- | --- | --- | --- | --- | --- |
| RE007 growth inh | 2% | -11% | -5% | 4% | -6% | -1% |
| StopGo reporter | -22% | 23% | -2% | -13% | -8% | 20% |

7: CN(CC(=O)Nc1cccc(F)c1)C(=O)Cc1ccsc1
8: CC1(C)CC(=O)C=C(c2ccc(COC(=O)C3CC3)cc2)C1=O
9: COc1ccccc1-c1cn(CC[C@@H]2CC[C@H](NC(=O)C3CCC3)[C@@H](CO)O2)nn1
10: CC1(C(=O)NS(=O)(=O)c2ccc3c(c2)CCO3)CCN1C(=O)c1ccccc1CCc1ccccc1 (configuration not stated)
11: CCOc1ccc(S(=O)(=O)c2ccc(C)cc2)c2c1no[n+]2[O-]
12: CCCN(C)C1CN(Cc2cn(Cc3ccc(OC)cc3)nn2)S(=O)(=O)C1 (configuration not stated)

| screen / no. | 7 | 8 | 9 | 10 | 11 | 12 |
| --- | --- | --- | --- | --- | --- | --- |
| RE007 growth inh | -1% | 0% | 11% | 3%[18.4 µM] | -5% | 15% |
| StopGo reporter | -4% | 36%[activator] | -1% | -2% | -6% | -22% |

13: COCc1cn(CC(C)n2c(=O)c3ccccc3n2Cc2cc(C(C)C)no2)nn1 (configuration not stated)
14: CC1(C(=O)Nc2ccccc2Cc2ccccc2)CCN1CCc1ccccc1 (configuration not stated)
15: NCc1ccccc1
16: O=S1(=O)CCN(Cc2cccnc2)CC1
17: CC1=NN(c2ccccc2)C(=O)C1=Cc1ccccc1
18: CCCc1nc2ccc(C)cn2c1Cc1ccccc1OC

| screen / no. | 13 | 14 | 15 | 16 | 17 | 18 |
| --- | --- | --- | --- | --- | --- | --- |
| RE007 growth inh | -1% | -5%[18.4 µM] | 8% | -7% | -14% | ? |
| StopGo reporter | -9% | ? | -18% | -22% | 0% | -4% |

19: CC(C)(C)n1nnnc1C(c1cc2ccccc2o1)N1CCCC1 (configuration not stated)
20: CCCCN1C(=O)C(CC(=O)NCCc2ccccn2)CC(C(=O)N(C(C)C)C(C)C)=C1C (configuration not stated)
21: O=[N+]([O-])c1cccc(N=NNc2cccc([N+](=O)[O-])c2)c1
22: Cc1ccc(-c2nc3c(C)cc(Br)cn3c2Cc2cccc(F)c2)cc1
23: CCOC(=O)C1(CCCc2ccccc2)CCN(C(=O)c2n[nH]c(CC)c2C)CC1
24: COCOc1ccc(/C=C/C(=O)c2c(O)cc(OCOC)cc2OCOC)cc1

| screen / no. | 19 | 20 | 21 | 22 | 23 | 24 |
| --- | --- | --- | --- | --- | --- | --- |
| RE007 growth inh | 2% | 4% | -17% | 4% | -15% | -8% |
| StopGo reporter | -21% | -12% | 14% | 0% | ? | ? |

25: O=C(CCN1CCCCC1)Nc1ccc(F)c(F)c1
26: Nc1nc(N2CCCCC2)c2ncn(C3OC(CO)C(O)C3O)c2n1 (configuration not stated)
27: O=C(Nc1ccc2c(c1)OCCO2)C(C1CC1)N1CCN(C/C=C/c2ccccc2)CC1 (configuration not stated)
28: CN(C)CC(=O)N[C@@H]1C=C[C@@H](CC(=O)NCCN2CCCCC2)O[C@@H]1CO
29: CC(N)c1csc(Nc2nccc(C(F)(F)F)n2)n1 (configuration not stated)
30: CS(=O)(=O)c1ccc(-c2cnc3c(NC=O)cc(-c4ccsc4)cn23)cc1

| screen / no. | 25 | 26 | 27 | 28 | 29 | 30 |
| --- | --- | --- | --- | --- | --- | --- |
| RE007 growth inh | 5% | 1% | -9% | -19% | 3%[18.4 µM] | 2% |
| StopGo reporter | -22% | 0% | -10% | 0% | -2% | -28% |

31: CCC(C)C(N)C(=O)N1CCCC1C(=O)NC(C(=O)O)C(C)CC (configuration not stated)
32: COc1ccc(NC(=O)CN(C)C(=O)c2cc(C)oc2C)cc1
33: CC(=O)N1N=C(c2ccc(Br)cc2)CC1c1ccc(Br)cc1 (configuration not stated)
34: CC1=C(C(=O)N(C(C)C)C(C)C)CC(CC(=O)NCCCCc2ccccc2)C(=O)N1CCC1=CCCCC1 (configuration not stated)
35: CCC(=O)N1CCC1(C)C(=O)Nc1nccs1 (configuration not stated)
36: C[C@@H]1CN([C@H](C)CO)S(=O)(=O)c2ccc(C#Cc3ccccc3F)cc2O[C@H]1CN(C)C(=O)c1ccc2c(c1)OCO2

| screen / no. | 31 | 32 | 33 | 34 | 35 | 36 |
| --- | --- | --- | --- | --- | --- | --- |
| RE007 growth inh | 12% | 1% | 3% | -10% | 4%[18.4 µM] | -3% |
| StopGo reporter | -23% | -2% | 19% | -6% | -25% | -24% |

37: CCc1nc2ccc(C(=O)NCCC(C)C)cn2c1N(CCN(C)C)CC1CC1
38: Cc1ccc(-c2nc3cc(C)c(Br)c(C)n3c2Cc2ccccc2)cc1
39: Cc1ccc(Cc2c(C(C)(C)C)nc3cc(C)c(Br)c(C)n23)cc1
40: CN1CCN(c2ncnc3c2ncn3[C@H]2CN(Cc3ccc(Cl)cc3)C[C@@H](CO)O2)CC1
41: Cc1ccccc1OP(=O)(Oc1ccccc1C)N1CCOCC1
42: OC[C@H]1OC(O)[C@H](O)[C@@H]1O (some centres not stated)

| screen / no. | 37 | 38 | 39 | 40 | 41 | 42 |
| --- | --- | --- | --- | --- | --- | --- |
| RE007 growth inh | 0% | 1% | -14% | -14% | -15%[18.4 µM] | -9%[18.4 µM] |
| StopGo reporter | 0% | 0% | -15% | -20% | -18% | -3% |

43: COc1ccc(N2CCN(C(=O)CSc3nnc(C4CC4)n3C3CC3)CC2)cc1
44: CCc1ccc([C@H]2[C@@H]3C(=O)C[C@@H]4C(=O)N(C)C(=O)[C@@H]4[C@@H]3CN2S(=O)(=O)c2ccc(C)cc2)cc1
45: COc1ccc(NC(=O)C2(C)Cc3c(-c4ccccc4)ccnc3O2)cc1OC (configuration not stated)
46: CCCNC(=O)OC1CC2CC1[C@H]1CCCCN1C2=O (some centres not stated)
47: CCNC(=O)C1CCCN(C(=O)c2cccc(C(F)(F)F)c2)CC1 (configuration not stated)
48: C/C=C/c1ccc2c(c1)O[C@H](CN(C)C(=O)NC1CCCC1)[C@H](C)CN([C@H](C)CO)S2(=O)=O

| screen / no. | 43 | 44 | 45 | 46 | 47 | 48 |
| --- | --- | --- | --- | --- | --- | --- |
| RE007 growth inh | 0% | 5% | -12% | 2% | -9%[18.4 µM] | 18% |
| StopGo reporter | -14% | -13% | ? | -10% | -7% | 91%[activator] |

49: CCCOc1ccc(F)cc1-c1cc(C(=O)NC2CCCCC2)[nH]n1
50: O=C(O)/C=C1\CCCc2ccccc2C1O (configuration not stated)
51: COc1ncc(-c2ccc(N3C(c4ccsc4)=Cc4ccc(F)cc4C3CC(C)=O)cc2)cn1 (configuration not stated)
52: CCN(CC(=O)Nc1cc(Cl)ccc1C)CC(=O)NC1CC1
53: COC(=O)c1cccc(OCCCN2CCC(C(O)(c3ccccc3)c3ccccc3)CC2)c1
54: COc1ccc2c(CN3CCN(c4ccccc4F)CC3)cc(=O)oc2c1

| screen / no. | 49 | 50 | 51 | 52 | 53 | 54 |
| --- | --- | --- | --- | --- | --- | --- |
| RE007 growth inh | 0% | -7%[18.4 µM] | -11% | -9% | -18% | 1% |
| StopGo reporter | -13% | -16%&-3% | -18% | -25% | -20% | -15% |

55: CN(C)CC(=O)N[C@@H]1CC[C@@H](CC(=O)NCCN2CCCCC2)O[C@@H]1CO
56: Cc1cc(C)c(C)c(S(=O)(=O)N2CCC(C(=O)NCc3cccs3)CC2)c1C
57: O=C(Cc1ccc(NC(=O)C2CCCN(C(=O)CCc3ccccc3)C2)cc1)Nc1cccc(C(=O)N2CCCCC2)c1 (configuration not stated)
58: CC(C)(C)c1nc2ccc(Cl)cn2c1CC1CCCCC1
59: CCC(c1nnnn1Cc1ccccc1)N1CCN(C/C=C/c2ccccc2)CC1 (configuration not stated)
60: COc1cccc(-c2cnc(C(O)c3ccc(C)cc3)[nH]2)c1 (configuration not stated)

| screen / no. | 55 | 56 | 57 | 58 | 59 | 60 |
| --- | --- | --- | --- | --- | --- | --- |
| RE007 growth inh | -4% | -3% | -5% | 39% | -12% | -14% |
| StopGo reporter | -18% | -1% | ? | -15% | -10% | 36%[activator] |

61: CN(c1ccccc1)S(=O)(=O)c1cccc(NC(=O)CCNC(=O)c2ccco2)c1
62: CC(=O)N(C(C)=O)c1ccc(Oc2ccc(Oc3ccc(N(C(C)=O)C(C)=O)cc3)cc2)cc1
63: CC(C)[C@H](NC(=O)OC(C)(C)C)c1cc(C(=O)N(C)CCN(C)C)c(N)s1
64: CC(C)n1c(=O)c2ccccc2n1C(=O)c1ccccc1
65: COc1ccc(C(=O)N(C)[C@H]2C[C@H]3c4[nH]c5ccccc5c4CCN3C(=O)[C@H]2CO)cc1
66: N#Cc1cnc2nc1NCCCCCCC2

| screen / no. | 61 | 62 | 63 | 64 | 65 | 66 |
| --- | --- | --- | --- | --- | --- | --- |
| RE007 growth inh | 12% | 14% | 12% | 18% | -7% | -4% |
| StopGo reporter | ? | -24% | -9% | ? | -29% | ? |

67: O=NN(CCF)C(=O)NC1CCS(=O)(=O)CC1
68: Cc1ccc(NC(=O)C2(C)CCN2CCc2ccccc2)cc1O (configuration not stated)
69: CCCC(=O)Nc1ncnc2c1ncn2[C@@H]1O[C@@H]2OP(=O)(O)OC[C@H]2[C@H]1OC(=O)CCC
70: CCCCNC(=O)c1[nH]c(C2CCNCC2)nc1-c1cccc(C(F)(F)F)c1
71: COc1ccc(CN2C(=O)CSCC2(C)C(=O)Nc2c(C)cccc2C)cc1 (configuration not stated)
72: CC(=O)Nc1cc(-c2ccccc2F)cn2c(-c3cccc(C(F)(F)F)c3)cnc12

| screen / no. | 67 | 68 | 69 | 70 | 71 | 72 |
| --- | --- | --- | --- | --- | --- | --- |
| RE007 growth inh | ? | 2% | -2%[18.4 µM] | -10% | 2% | 3%[18.4 µM] |
| StopGo reporter | 0% | -20% | -12% | 26% | -10% | -26% |

73: Cc1ccc(Cn2c(C)c(C(=O)NCC(C)C)sc2=O)cc1
74: CC(C)n1ncc2c(C(=O)N3CCN(S(=O)(=O)c4cccc(F)c4)CC3)cc(C3CC3)nc21
75: Cc1ccc(C(O)c2ncc(-c3cccc4ccccc34)[nH]2)c(C)c1 (configuration not stated)
76: O=C(O)C1(O)C[C@@H](O)C(O)[C@H](O)C1 (some centres not stated)
77: Cc1cc2nc(-c3cccc(Br)c3)c(Cc3cccc(Cl)c3)n2c(C)c1Br
78: Nc1nonc1-n1nnc(C(=O)N/N=C/c2ccc(O)cc2)c1CN1CCCCCC1

| screen / no. | 73 | 74 | 75 | 76 | 77 | 78 |
| --- | --- | --- | --- | --- | --- | --- |
| RE007 growth inh | 12%[18.4 µM] | 14% | -21%[18.4 µM] | -19% | -12% | -11% |
| StopGo reporter | -16% | 0% | 2% | -15% | -18% | -14% |

Filtered by structure: those above with a thiophene ring, fused or not
7: CN(CC(=O)Nc1cccc(F)c1)C(=O)Cc1ccsc1
30: CS(=O)(=O)c1ccc(-c2cnc3c(NC=O)cc(-c4ccsc4)cn23)cc1
51: COc1ncc(-c2ccc(N3C(c4ccsc4)=Cc4ccc(F)cc4C3CC(C)=O)cc2)cn1 (configuration not stated)
56: Cc1cc(C)c(C)c(S(=O)(=O)N2CCC(C(=O)NCc3cccs3)CC2)c1C
63: CC(C)[C@H](NC(=O)OC(C)(C)C)c1cc(C(=O)N(C)CCN(C)C)c(N)s1

| screen / no. | 7 | 30 | 51 | 56 | 63 |
| --- | --- | --- | --- | --- | --- |
| RE007 growth inh | -1% | 2% | -11% | -3% | 12% |
| StopGo reporter | -4% | -28% | -18% | -1% | -9% |

(continued)
79: Cc1ccc(CNC(=O)C2CC(c3ccccc3C(F)(F)F)=NO2)o1 (configuration not stated)
80: CCCNC(=O)C1(C)CCCN(C(=O)c2ccc(OC(F)F)cc2)C1 (configuration not stated)
81: C[C@H](O)[C@@H]1CN2CCc3c([nH]c4ccccc34)[C@@H]2C[C@@H]1N(C)C(=S)Nc1ccc(C#N)cc1
82: CCCc1nc2ccc(C)cn2c1Cc1cccc(Cl)c1
83: CC1(Cc2cc(Cl)ccc2C(F)(F)F)C(=O)Nc2cc(-c3ccccc3Cl)ccc21 (configuration not stated)
84: C=C1C(=O)[C@]23C[C@H]1CC[C@H]2[C@]1(C)[C@@H](OC(C)=O)CC[C@@](C)(C(=O)O)[C@H]1C[C@@H]3O
85: C[C@H]1COc2cc(N3CCN(C)CC3)ccc2S(=O)(=O)N1

| screen / no. | 79 | 80 | 81 | 82 | 83 | 84 | 85 |
| --- | --- | --- | --- | --- | --- | --- | --- |
| RE007 growth inh | -12% | -2% | -20% | -29% | -2% | -1% | 24% |
| StopGo reporter | -16% | -12% | 9% | 29% | -18% | 0% | -6% |
